CtBP-E1A blk – CtBP/E1A binding inhibition. activity change, % (no concentration beside the values). hit rate 0.49% among 340,000. AID 651724. AlphaScreen GST-E1A/His-CtBP binding, 1536-well; hits give low values; control for the full effect not named in the record; in the data active means activity change below about -65%; inconclusive means about -30% to -65%; inactive means above about -30%; also: % is scaled to controls: 0 for no effect and ±100 for the full control effect; compound concentration not given in the record
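In 5 uL wells, 23 nL compound meets equimolar GST-E1A and His-CtBP (5X stock 125 nM each) for 2 h, 37 °C. Beads (5X, 50 ug/mL) then 1 h, 37 °C, dark.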
Six1-Eya2 inh – inhibitors of human Six1/Eya2 interaction; hit rate 0.56% among 360,000; activity change, % (no concentration beside the values); AID 651725; AlphaScreen GST-Six1/His-Eya2 binding, biochemical; hits give low values; control for the full effect not named in the record; in the data active = activity change below about -65%; inconclusive = about -30% to -65%; inactive = above about -30%; also: % is scaled to controls: 0 for no effect and ±100 for the full control effect; compound concentration not given in the record
Target sequence (O00167 whole entry, looked up): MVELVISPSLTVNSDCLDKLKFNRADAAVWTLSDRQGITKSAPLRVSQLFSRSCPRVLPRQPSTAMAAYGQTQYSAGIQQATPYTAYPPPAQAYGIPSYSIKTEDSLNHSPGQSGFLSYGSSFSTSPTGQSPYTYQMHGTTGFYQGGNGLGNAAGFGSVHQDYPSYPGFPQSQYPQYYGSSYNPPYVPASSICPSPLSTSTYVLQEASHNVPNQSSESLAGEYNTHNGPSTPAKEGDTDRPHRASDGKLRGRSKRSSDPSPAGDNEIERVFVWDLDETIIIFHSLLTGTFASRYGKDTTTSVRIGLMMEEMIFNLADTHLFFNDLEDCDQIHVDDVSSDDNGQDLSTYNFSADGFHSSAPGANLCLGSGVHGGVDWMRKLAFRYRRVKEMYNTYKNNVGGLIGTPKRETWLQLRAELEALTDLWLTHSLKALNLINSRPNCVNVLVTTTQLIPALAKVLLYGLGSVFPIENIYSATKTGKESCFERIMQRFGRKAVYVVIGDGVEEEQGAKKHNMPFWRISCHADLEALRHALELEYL
Target sequence (Q15475 whole entry, looked up): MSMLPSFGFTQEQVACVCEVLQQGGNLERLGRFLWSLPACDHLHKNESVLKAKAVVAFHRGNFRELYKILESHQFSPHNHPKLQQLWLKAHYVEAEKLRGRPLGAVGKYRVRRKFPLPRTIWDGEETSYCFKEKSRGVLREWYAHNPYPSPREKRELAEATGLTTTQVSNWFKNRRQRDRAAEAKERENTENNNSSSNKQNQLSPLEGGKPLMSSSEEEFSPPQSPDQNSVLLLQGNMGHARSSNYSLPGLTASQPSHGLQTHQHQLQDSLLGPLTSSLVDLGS
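Compounds are tested against tagged Six1 and Eya2 proteins bridged by glutathione donor and nickel acceptor beads; after a one-hour incubation at 37 °C without light, AlphaScreen emission is recorded.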
TRPV1 potentiator – potentiators of human vanilloid receptor 1 (TRPV1); Q8NER1; TRPV1-expressing cells, Fluo-8 calcium influx, capsaicin EC20 potentiation; host cell line not named in the record; control for the full effect not named in the record; potentiation, % at 8.33 µM; hit rate 0.02% among 320,000; AID 540277; active means potentiation above 80%; inconclusive means 30% to 80%; inactive means below 30%; also: 0% is about no effect
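TRPV1-expressing cells were cultured overnight at 35.5C and loaded with Fluo-8 calcium dye for 40 to 90 min at room temperature. After a 10 s baseline, compound was added and calcium influx was read kinetically for 3 min (ex 480/em 520 nm).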
D2 PAM – human D2 receptor positive allosteric modulation. potentiation, % (concentration not given with the values). AID 624464. P14416. DiscoveRx D2 beta-arrestin cells, luminescence, 90 min; 100% = 57 uM dopamine signal. hit rate 0.23% among 360,000; active = potentiation of 50% or more; inconclusive = 30% to 50%; inactive = 30% or less;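 also: compound concentration not given in the record; tested on top of an EC20 dose of dopamine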
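PathHunter D2 cells, attached overnight at 37 deg C, received compound in DMSO plus dopamine at EC20 (50 nM final) for 90 min at 37 deg C. Beta-arrestin recruitment was read as luminescence after 1 h with detection reagent at ambient temperature.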
TRPML1 ag – agonists of human TRPML1 channel; Q9GZU1; TRPML1-expressing cells, Ca2+ dye fluorescence, FDSS; host cell line not named in the record; reference of the full effect not given here; activation, % (test concentration not listed); hit rate 0.12% among 410,000; AID 624414; in the data active = activation above about 50%; inconclusive = about 30% to 50%; inactive = below about 30%; also: 0% is about no effect; the text of the record puts the active cut at 80%
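In this qHTS format, compounds were pin-transferred onto Ca8-dye-loaded TRPML1-DL cells induced with Tet overnight, and intracellular Ca2+ fluorescence was recorded kinetically for 110 s after a 10 s baseline. A subsequent 4uM final 54-4 (EC80) addition followed by a second 110 s read served as the antagonist phase.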
TRPML1 blocker – inhibitors of human TRPML1 channel. Q9GZU1. TRPML1-inducible cells, Ca2+ dye fluorescence, FDSS; hits give low values; inhibition of EC80 agonist-evoked calcium signal. activity change, negative = inhibition, % (test concentration not listed). hit rate 0.02% among 390,000. AID 624415; in the data active means activity change below about -50%; inconclusive means about -30% to -50%; inactive means above about -30%;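 also: stimulus is agonist 54-4 at its EC80 concentration; % is scaled to controls: 0 for no effect and ±100 for the full control effect; compound concentration not given in the record; the text of the record puts the active cut at -80%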
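TRPML1-DL cells, Tet-induced overnight (~16 h, 37 °C) at 1,500 cells/well, were loaded with Ca8 no-wash dye plus quencher for 45-90 min at room temperature. Compounds were pinned during FDSS kinetic reading; agonist 54-4 at EC80 (4 uM final) then added.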
* marks the source's active call; other numbers are inactive results; ? = inconclusive; . = no result given.

SMILES	CtBP-E1A blk	Six1-Eya2 inh	TRPV1 potentiator	D2 PAM	TRPML1 ag	TRPML1 blocker
Cc1cccc(-c2noc(CCC(=O)NCCc3ccccc3)n2)c1	0	8	-12	-3	0.3	-2
CCN(CC(=O)NCc1cccs1)C(=O)c1cccc(S(=O)(=O)Nc2ccccc2OC)c1	1	-1	6	-1	1.1	41
COc1ccccc1-c1noc(CCCC(=O)NC2CCCCC2)n1	20	5	0	-2	2.3	9
O=C(CSc1ccc2c(c1)OCCO2)Nc1ccc(Br)cc1	5	-3	-12	-10	1.6	2
CCCCn1c(=O)[nH]c(=O)c2c1nc(-c1ccsc1)n2Cc1ccccc1	-4	-11	-7	-7	0.9	-7
O=C(CCC(=O)N(c1ccccc1)C(C(=O)NC1CCCC1)c1ccncc1)Nc1cccnc1 (stereo not drawn)	4	0	-1	-9	-0.3	-5
C=CCn1c(SCC(=O)NCc2ccco2)nc2sc3c(c2c1=O)CCC3	1	-13	-5	3	0.8	7
COC(=O)CN1CCN(C(c2ccccc2)c2ccccc2)CC1	5	-1	2	-16	-0.3	9
O=C(Nc1ccc(S(=O)(=O)Nc2nccs2)cc1)c1ccc(S(=O)(=O)N2CCOCC2)cc1	3	3	-34	-30	0.3	-7
c1ccc(C2=NC(c3ccccc3)CC2)cc1 (stereo not drawn)	1	1	.	-1	0.0	8
CS(=O)(=O)c1ccccc1C(=O)Nc1cccc(-c2nc3ccccc3o2)c1	.	-5	1	-5	0.1	-2
CSCC[C@H](NC(=O)N1CCn2c1nc1ccccc12)C(=O)NCc1ccc(C)cc1	.	-20	3	-10	0.1	-3
CNC1=C([N+](=O)[O-])CC([N+](=O)[O-])=C(N2CCNCC2)N1C	.	24	11	0	-0.4	3
Cc1cc(=O)[nH]c(NNC(=O)c2ccc(Cl)cc2)n1	-18	3	.	-6	-0.1	3
Cc1ccc(S(=O)(=O)N2CCCCC2)cc1NC(=O)CSc1nnnn1C	-6	-6	0	-17	-0.4	-13
Cc1cccc(-c2nc3ccccc3c(=O)[nH]2)c1	1	0	9	-6	-0.2	27
CCCCn1nnc(NC(=O)c2ccco2)n1	4	27	5	-5	-0.8	-1
COc1ccc(C2=NNC(c3cccnc3)=Nc3ccc(OC)cc32)cc1	-13	-2	-9	-16	-0.2	-2
CC(C)N(Cc1ccccc1)S(=O)(=O)c1ccc(-n2cccn2)cc1	1	12	.	-15	1.8	67
N#CCC(=O)N/N=C/c1cc([N+](=O)[O-])ccc1N1CCOCC1	.	-26	2	-3	1.4	6
CCCC(=O)Nc1ccc(S(=O)(=O)Nc2cc(OC)nc(OC)n2)cc1	.	5	8	-1	0.1	-6
CCc1nnc(NC(=O)C2CC(=O)N(CCc3ccccc3)C2)s1 (stereo not drawn)	-18	-11	9	3	2.4	-12
CC(C)NC(=O)c1c(CSc2ccc(Cl)cc2)noc1C(=O)NCc1ccccc1	2	13	-23	-8	1.0	35
O=C(NCc1ccc(Cl)cc1)C1CCCN1C(=O)Nc1ccc(F)cc1 (stereo not drawn)	-11	3	-1	-3	-0.1	-7
C=CCNC(=O)C1CCC(CNc2nc(=S)[nH]c3ccccc23)CC1 (stereo not drawn)	.	-7	6	0	0.4	14
CC(C)CC(=O)Nc1ccc2nn(-c3ccccc3)nc2c1	-21	-13	?	-9	0.8	-27
Cc1nn(CC(=O)Nc2cccc(C(F)(F)F)c2)c(=O)c2cccn12	4	3	1	2	-0.7	8
FC(F)(F)c1cccc(/C=N/NC(=S)NC2CCCCC2)c1	-9	-1	-3	-3	5.0	-8
COc1ccc(CC(=O)NCC2(c3ccc(OC)c(OC)c3)CCCC2)cc1	7	5	0	-2	-0.2	0
C[C@@]12CCC3[C@@](CCC4[C@@]3(C)CCC[C@@]4(C)C(=O)O)(CC1=O)C2 (stereo partly drawn)	-22	10	-3	-2	-0.1	-14
Cc1[nH]c2ccc(F)cc2c1CCN1C(=O)OC(C)(C)C1(C)O (stereo not drawn)	-1	-3	-1	-4	0.6	-4
O=C(O)C1CC=CCC1C(=O)Nc1ccccc1C(=O)N1CCN(c2ccccc2)CC1 (stereo not drawn)	6	3	5	-6	-0.7	-8
O=C(c1ccc(NS(=O)(=O)c2cccs2)cc1)N1CCN(c2ccccc2Cl)CC1	8	-1	5	-11	1.1	6
COc1ccc(C2=NN(C(=O)CSc3nc4ccccc4s3)C(c3ccc(OC)cc3)C2)cc1 (stereo not drawn)	-15	-10	9	-19	2.7	5
Cc1ccc(OCc2nnn(CC(=O)NS(=O)(=O)c3c(C)noc3C)c2-c2ccccc2)cc1	7	4	.	-7	-0.9	.
CC(C)(C)NC(=O)CN(Cc1cccs1)C(=O)CCC(=O)Nc1nccs1	-3	3	12	18	0.6	-6
O=C(CSc1nnc2ncccn12)Nc1cccc2ccccc12	6	-5	-6	1	1.3	12
CC(NC(=O)CSc1ncnc2nc[nH]c12)c1ccccc1 (stereo not drawn)	2	6	10	4	-1.0	18
Cc1cccc(C(=O)NCC(=O)NCC(c2cccs2)N2CCOCC2)c1 (stereo not drawn)	-2	12	6	5	-0.3	6
O=C(ONC(=O)C1C2C=CC(C2)C1C(=O)NOC(=O)c1ccccc1)c1ccccc1 (stereo not drawn)	-2	7	.	?	0.0	-6

For convenience, 20 of the compounds above.
SMILES	CtBP-E1A blk	Six1-Eya2 inh	TRPV1 potentiator	D2 PAM	TRPML1 ag	TRPML1 blocker
COc1ccc(C2=NNC(c3cccnc3)=Nc3ccc(OC)cc32)cc1	-13	-2	-9	-16	-0.2	-2
CC(C)N(Cc1ccccc1)S(=O)(=O)c1ccc(-n2cccn2)cc1	1	12	.	-15	1.8	67
N#CCC(=O)N/N=C/c1cc([N+](=O)[O-])ccc1N1CCOCC1	.	-26	2	-3	1.4	6
CCCC(=O)Nc1ccc(S(=O)(=O)Nc2cc(OC)nc(OC)n2)cc1	.	5	8	-1	0.1	-6
CCc1nnc(NC(=O)C2CC(=O)N(CCc3ccccc3)C2)s1 (stereo not drawn)	-18	-11	9	3	2.4	-12
CC(C)NC(=O)c1c(CSc2ccc(Cl)cc2)noc1C(=O)NCc1ccccc1	2	13	-23	-8	1.0	35
O=C(NCc1ccc(Cl)cc1)C1CCCN1C(=O)Nc1ccc(F)cc1 (stereo not drawn)	-11	3	-1	-3	-0.1	-7
C=CCNC(=O)C1CCC(CNc2nc(=S)[nH]c3ccccc23)CC1 (stereo not drawn)	.	-7	6	0	0.4	14
CC(C)CC(=O)Nc1ccc2nn(-c3ccccc3)nc2c1	-21	-13	?	-9	0.8	-27
Cc1nn(CC(=O)Nc2cccc(C(F)(F)F)c2)c(=O)c2cccn12	4	3	1	2	-0.7	8
FC(F)(F)c1cccc(/C=N/NC(=S)NC2CCCCC2)c1	-9	-1	-3	-3	5.0	-8
COc1ccc(CC(=O)NCC2(c3ccc(OC)c(OC)c3)CCCC2)cc1	7	5	0	-2	-0.2	0
C[C@@]12CCC3[C@@](CCC4[C@@]3(C)CCC[C@@]4(C)C(=O)O)(CC1=O)C2 (stereo partly drawn)	-22	10	-3	-2	-0.1	-14
Cc1[nH]c2ccc(F)cc2c1CCN1C(=O)OC(C)(C)C1(C)O (stereo not drawn)	-1	-3	-1	-4	0.6	-4
O=C(O)C1CC=CCC1C(=O)Nc1ccccc1C(=O)N1CCN(c2ccccc2)CC1 (stereo not drawn)	6	3	5	-6	-0.7	-8
O=C(c1ccc(NS(=O)(=O)c2cccs2)cc1)N1CCN(c2ccccc2Cl)CC1	8	-1	5	-11	1.1	6
COc1ccc(C2=NN(C(=O)CSc3nc4ccccc4s3)C(c3ccc(OC)cc3)C2)cc1 (stereo not drawn)	-15	-10	9	-19	2.7	5
Cc1ccc(OCc2nnn(CC(=O)NS(=O)(=O)c3c(C)noc3C)c2-c2ccccc2)cc1	7	4	.	-7	-0.9	.
CC(C)(C)NC(=O)CN(Cc1cccs1)C(=O)CCC(=O)Nc1nccs1	-3	3	12	18	0.6	-6
O=C(CSc1nnc2ncccn12)Nc1cccc2ccccc12	6	-5	-6	1	1.3	12

Quoted at random: two entries already listed, in no set order.
SMILES	CtBP-E1A blk	Six1-Eya2 inh	TRPV1 potentiator	D2 PAM	TRPML1 ag	TRPML1 blocker
O=C(O)C1CC=CCC1C(=O)Nc1ccccc1C(=O)N1CCN(c2ccccc2)CC1 (stereo not drawn)	6	3	5	-6	-0.7	-8
Cc1nn(CC(=O)Nc2cccc(C(F)(F)F)c2)c(=O)c2cccn12	4	3	1	2	-0.7	8

(cont.)
SMILES	CtBP-E1A blk	Six1-Eya2 inh	TRPV1 potentiator	D2 PAM	TRPML1 ag	TRPML1 blocker
CCCNC(=O)C1(CC2CC(c3ccccc3)=NO2)CCNCC1 (stereo not drawn)	3	1	.	-10	-0.5	-13
COc1ccc(C2CC(c3ccccc3)=NN2S(=O)(=O)c2ccc(C)cc2)c(OC)c1 (stereo not drawn)	-7	-11	-1	1	1.0	4
C=CCn1c(SCC(=O)c2cccs2)nc2sc(C)cc2c1=O	1	0	-14	-1	0.6	2
O=C(NNc1ccccn1)C(=O)NNS(=O)(=O)c1ccc(F)cc1	-92*	-90*	-26	0	0.1	-6
Cc1ccc(N(CC(=O)N/N=C/c2cccnc2)S(=O)(=O)c2ccccc2)cc1	.	-4	0	-9	0.8	-1
COc1ccccc1NC(=O)C(=O)NCC(c1ccco1)N1CCc2ccccc21 (stereo not drawn)	-2	-14	3	-4	1.9	-5
CCN(CC)C(=O)Cn1cc(S(=O)(=O)CC(=O)Nc2ccc3c(c2)OCCO3)c2ccccc21	2	7	26	-2	0.3	-4
Oc1ccccc1CNCc1ccccc1	4	7	-1	-7	0.8	11
COC(=O)[C@H]1[C@H](c2ccccc2)[C@H](C(=O)OC)O[C@H]1c1ccccc1	8	0	.	-9	1.0	-2
COCC(C)NC(=O)Cc1ccc(Cl)cc1 (stereo not drawn)	18	6	-3	-5	-0.3	-8
CC(C)NC(=O)CCCN1C(=O)c2ccccc2Sc2ncccc21	-4	-4	-7	-2	1.4	-24
Nc1nn(-c2ccccc2)c(N)c1N=Nc1ccccc1	0	-28	-10	-4	-0.6	-14
COC(=O)c1ccc2ccccc2n1	26	23	.	-30	.	.
Cc1onc(-c2ccccc2)c1C(=O)NC(=S)NNC(=O)c1ccc(O)cc1O	-14	-93*	5	-19	1.4	26
COc1ccc(-n2nc3ccc(NC(=O)c4c(OC)cccc4OC)cc3n2)cc1	.	.	-11	.	0.9	41
CC1(C)CC(=O)C2=C(C1)OC(N)=C(C#N)C2C#Cc1ccccc1 (stereo not drawn)	3	-3	6	11	0.1	5

Screening results as filed in PubChem BioAssay.
